# Screens (PubChem)
# VACV Venus inh: vaccinia inhibition (Venus reporter). Vaccinia virus Venus reporter expression, fluorescence. Potency, µM (series often up to 36.5 µM), for inactives: at the highest dose activity change, negative = inhibition, usual class: inhibitors. hit rate 0.46% among 330,000; active means well fitted inhibition curve with a large enough effect; inconclusive means small, poorly fitted or top-dose-only effect; inactive means no such curve, though single readings can be large or run the other way; tested in A549 cells; note: nearly all actives have a fitted effect of over 30% in size; inactives centre near -10
# Vaccinia mCherry: inhibitors of vaccinia virus infection (mCherry reporter signal); hit rate 0.63% among 310,000; Vaccinia virus mCherry reporter infection, fluorescence; about a quarter of the inactives have no number; AID 720579; Potency, µM (top dose mostly 36.5 µM), inactives show at the top dose activity change, negative = inhibition, actives largely listed as inhibitors; active = well fitted inhibition curve with a large enough effect; inconclusive = small, poorly fitted or top-dose-only effect; inactive = no such curve, though single readings can be large or run the other way; tested in A549 cells; note: nearly all actives have a fitted effect of over 35% in size; inactives centre near -10
# * marks the source's active call; other numbers are inactive results; i = inactive; u = inconclusive; x = not tested or not shown; [ ] = dose if it differs, or a comment. % is set by controls: 0 for no effect and ±100 for the full control effect; potency is the fitted concentration of half-maximal effect.
SMILES,VACV Venus inh,Vaccinia mCherry
O=C(CCc1ccccc1)Nc1nc2nc(-c3ccccc3)cc(=O)n2[nH]1,-5%,-1%
CCCc1cc(=O)[nH]c(SCC(=O)N(CC)c2c(N)n(Cc3ccccc3)c(=O)[nH]c2=O)n1,2%,-6%
CCNS(=O)(=O)c1ccc2nc(NC(=O)/C=C/c3cc(OC)c(OC)c(OC)c3)sc2c1,4%,-6%
COc1ccccc1N1CCN(C(=O)c2sc3nc(-c4ccccc4)cn3c2C)CC1,u,u
O=C1c2ccccc2C(=O)N1CC1c2ccccc2CCN1C(=O)N1CCOCC1 (stereo not given),1%,x
CC1CCCCN1CC(=O)NC(c1ccccc1)c1ccccc1 (stereo not given),-20%,-14%
C[C@@H]1CN([C@H](C)CO)C(=O)CCCn2nncc2CO[C@@H]1CN(C)C(=O)NC1CCCCC1,0%,i
Cc1nn(Cc2ccc(F)cc2)c(C)c1NC(=O)c1cc(CC(C)C)on1,-21%,-29%
C/C(=N/NS(=O)(=O)c1ccc(C)cc1)c1ccc2c(c1)OCO2,-9%,-24%
CCCSc1nc2ccccc2n1CC(=O)O,-3%,1%
CC(=O)N1CCSc2ccc(S(=O)(=O)NCCc3ccc(Cl)cc3)cc21,-2%[7.34 µM],-18%[7.34 µM]
CC1CCN(c2ccc(C(=O)N3CCOCC3)cc2[N+](=O)[O-])CC1,-6%,-17%
COc1cccc(NC(=O)CSc2nc3c(oc4ccccc43)c(=O)[nH]2)c1,-12%,0%
O=C1c2ccccc2NC(c2ccc(Cl)cc2Cl)N1O (stereo not given),-8%,x
CC(=O)c1ccccc1NC(=O)COC(=O)/C=C/c1ccc(OC(F)F)cc1,-8%,i
CCCN(CC(=O)Nc1ccccc1C)C(=O)CCNC(=O)c1ccccc1Cl,-9%,-6%
Clc1cccc(-n2cc(-c3ccccc3)c3c(NC4CCCC4)ncnc32)c1,-4%,-11%
CCCCCCc1c(C)c2ccc(OCC(=O)N3CCC[C@H]3C(=O)O)c(C)c2oc1=O,-10%,-8%
CC(C)C1N=C2c3ccccc3N=C(SCC#N)N2C1=O (stereo not given),-8%,-5%
Cc1nnc(SCC2=C(C(=O)O)N3C(=O)C(NC(=O)Cn4cnnn4)C3SC2)s1 (stereo not given),-2%,-11%
CC(C)n1c(CN(C)c2ccccc2)nc2ccccc21,-11%,-4%
COCCCn1c(-c2ccccc2)nc2ccccc2c1=O,-12%,x
Nc1c(N2CCCC2)c2ccccc2oc1=O,3%,-8%
C[C@H](CO)NC(=O)[C@H](C)[C@H]1C[C@]1(C)[C@H](NC(=O)OCc1ccccc1)c1ccccc1,-3%,i
COC(=O)c1c(NC(=O)CSc2ncnc3[nH]ncc23)sc2c1CCC2,1%,7%
CCOc1cc(CNC(=O)c2ccc3c(c2)nc2n3CCCCC2)ccc1OC,-10%,-13%
CC(=O)Nc1ccc(NC(=O)C(C)OC(=O)CSCc2cccc(Cl)c2)cc1 (stereo not given),-12%,-19%
CC(=O)Nc1c(Cl)cc(Cl)c2c1Cc1cc(Cl)ccc1-2,0%,i
O=S(=O)(N/N=C\C=C\c1ccccc1)c1ccc(Br)cc1,3%,x
O=C(Nc1nnc(-c2ccco2)o1)c1ccc2ccccc2c1,-13%,-3%
Cc1ccc(NC(=O)N2CC3CCCN3c3ccccc32)cc1C (stereo not given),-1%,4%
Cc1cc(C(=O)OCC(=O)N2CCOCC2)ccc1[N+](=O)[O-],-2%,-12%
CN1CCN(C(=O)c2ccc3c(c2)N(Cc2ccc(C(F)(F)F)cc2)C(=O)c2ccccc2S3)CC1,u,-28%
COc1ccc(C(=O)NC(=S)Nc2cccnc2)cc1Cl,-21%,-10%
CCN(C(=O)CSc1nnc(-c2cc3occc3n2C)n1-c1ccccc1C)c1ccccc1,-12%,-12%
C/C(N)=C(/C#N)C(=O)COC(=O)Cc1coc2ccc3ccccc3c12,-2%,-4%
CCOc1cc(/C=C(/NC(C)=O)C(=O)O)cc(Cl)c1OCc1cccc(Br)c1,-10%,i
Cc1cccc(Cl)c1NC(=S)NCCc1ccccn1,-7%[7.34 µM],i[7.34 µM]
CC(=O)c1c(C)[nH]c(C(=O)OCC(=O)Nc2c(C)n(C)n(-c3ccccc3)c2=O)c1C,-9%,-8%
COc1cccc(Cc2nc3ccccc3nc2SCC(=O)N2CCN(c3ccccc3)CC2)c1,-12%,-3%

# Record cards (already shown).
# CC(C)n1c(CN(C)c2ccccc2)nc2ccccc21 in the list: VACV Venus inh: -11%; Vaccinia mCherry: -4%
# CCOc1cc(/C=C(/NC(C)=O)C(=O)O)cc(Cl)c1OCc1cccc(Br)c1 in the list: VACV Venus inh: -10%; Vaccinia mCherry: i

# Back to the main list, starting five compounds before the break.
SMILES,VACV Venus inh,Vaccinia mCherry
C/C(N)=C(/C#N)C(=O)COC(=O)Cc1coc2ccc3ccccc3c12,-2%,-4%
CCOc1cc(/C=C(/NC(C)=O)C(=O)O)cc(Cl)c1OCc1cccc(Br)c1,-10%,i
Cc1cccc(Cl)c1NC(=S)NCCc1ccccn1,-7%[7.34 µM],i[7.34 µM]
CC(=O)c1c(C)[nH]c(C(=O)OCC(=O)Nc2c(C)n(C)n(-c3ccccc3)c2=O)c1C,-9%,-8%
COc1cccc(Cc2nc3ccccc3nc2SCC(=O)N2CCN(c3ccccc3)CC2)c1,-12%,-3%
CN(C)c1ccc(P(=O)(OC2CCCCC2)C(O)c2ccncc2)cc1 (stereo not given),-15%,-4%
CCNC(=O)COC(=O)C1CCN(S(=O)(=O)c2ccc3c(c2)OCCO3)CC1,-7%,-3%
COc1cc(C(=O)NCCNC(=O)c2cc(OC)c(C)c(OC)c2)cc(OC)c1C,0%,-9%
Cc1ccc2c(C)c(C(=O)N3CCC(C(N)=O)(N4CCCCC4)CC3)oc2c1C,-28%,i
CC1(C)CC(=O)C(C=NCCN2CCOCC2)=C(O)C1,-7%,-7%
COC(=O)c1cc2sccc2n1Cc1ccc(C)cc1,-3%,-7%
COC(=O)/C(C#N)=C/c1c(Oc2cccc(C)c2C)nc2ccccn2c1=O,-15%,-7%
CCOC(=O)N1CCN(CCC(=O)Nc2cc(OC)cc(OC)c2)CC1,-6%,0%[1.46 µM]
N[C@H](C(=O)O)c1ccc(C(=O)O)c(O)c1,-6%,-11%
COCCN1CCC(CO)C1 (stereo not given),10%,-10%
c1ccc(N2CCN(c3nccn4ccnc34)CC2)nc1,2%,8%
O=C(Nc1ccc(Cl)cc1)N1CCC(CN2CCCCCC2)CC1,-1%,-5%
CCCc1cc(=O)oc2cc(OCC(=O)NCC3CCC(C(=O)O)CC3)ccc12 (stereo not given),2%,-2%
C=Cc1ccc(Cn2c(=O)n(-c3cccc(C)c3)c(=O)c3c2c2cc(C)ccc2n3C)cc1,-15%,-9%
NC(=O)c1nsc(C(=O)N(c2cccc(F)c2)C(C(=O)NCC2CCCO2)c2cccs2)c1N (stereo not given),-9%,i
COc1ccc(Cn2c(SCC(=O)Nc3ccc(OC)cc3)nc3ccccc32)cc1,-25%,-17%
CCOC(=O)[C@H]1[C@H]2COc3ccc(Br)cc3[C@@H]2N2C(=O)c3ccc(Cl)cc3NC(=O)[C@@]12C,u,u
CCC(C)[C@H](NC(=O)[C@@H]1Cc2c([nH]c3ccccc23)C2c3ccccc3C(=O)N21)C(=O)N1CCC[C@@H]1C(=O)O (stereo not given in full),-11%,-6%
CN(Cc1ccccc1)C(=O)[C@@H]1CCCN1C(=O)[C@@H]1CCCN1C(=O)c1ccc(Cl)cc1,-1%,-14%
Cn1c(=O)c2c(nc(N3CCCCC3)n2CCNC2=NCCC2)n(C)c1=O,-3%,x

# Some of these compounds in order of formula weight, ascending.
SMILES,VACV Venus inh,Vaccinia mCherry
c1ccc(N2CCN(c3nccn4ccnc34)CC2)nc1,2%,8%
COC(=O)c1cc2sccc2n1Cc1ccc(C)cc1,-3%,-7%
O=C(Nc1ccc(Cl)cc1)N1CCC(CN2CCCCCC2)CC1,-1%,-5%
Cc1ccc2c(C)c(C(=O)N3CCC(C(N)=O)(N4CCCCC4)CC3)oc2c1C,-28%,i
CN(Cc1ccccc1)C(=O)[C@@H]1CCCN1C(=O)[C@@H]1CCCN1C(=O)c1ccc(Cl)cc1,-1%,-14%
NC(=O)c1nsc(C(=O)N(c2cccc(F)c2)C(C(=O)NCC2CCCO2)c2cccs2)c1N (stereo not given),-9%,i

# Further records
SMILES,VACV Venus inh,Vaccinia mCherry
CCc1cccc(C)c1Nc1c(-c2cccs2)nc2ncccn12,-8%,-4%
CC(=O)OC1CC[C@]2(C)C(CCC3C2CC[C@]2(C)C(C4=CC(=O)OC4)C(OC(C)=O)CC32O)C1 (stereo not given in full),1.1µM*,1µM*
Cn1c2c(c(=O)n(C)c1=O)C(c1cccc(O)c1)CC(=O)N2 (stereo not given),6%,3%
COc1ccc(OC)c(NC(=O)COC(=O)CN2C(=O)NC3(CCCC3)C2=O)c1,-13%,i
CC1CC(C)CN(C(=O)C(C)N2CCN(S(=O)(=O)c3ccccc3F)CC2)C1 (stereo not given),1%,-2%
OC(CN1CCN(c2ccccc2F)CC1)c1ccc(F)cc1 (stereo not given),-16%,-25%
COc1ccc(OCc2cn(CC(=O)c3ccc(O)cc3)nn2)cc1,-2%,-14%
Cc1ccc(NC(=O)CN2C(=O)COc3ccc(S(=O)(=O)N4CCCC4)cc32)cc1C,-12%,i
O=C(c1ccc2c(c1)OCCO2)C1CCN(C(=O)Nc2ccccc2F)CC1,-5%,-10%
O=C(c1ccc2c(c1)N(Cc1ccc(Cl)cc1)C(=O)c1ccccc1S2=O)N1CCC(Cc2ccccc2)CC1 (stereo not given),-29%,u
Cc1[nH]c2ccccc2c1C(=O)CN1CCCC1,-3%,i
O=C1c2ccccc2C(=O)C1c1nccc2ccccc12,0%,-13%
Cc1nnc(N/N=C/C2CC=CCC2)[nH]c1=O (stereo not given),-6%,-7%
CCCCOc1cccc(/C=C(\C#N)C(=O)NC2CC2)c1,-1%,-14%
O=C(Nc1ccc(F)cc1F)Nc1csc2ccccc12,-25%,u
CC1(c2ccccc2)NC(=O)N(CC(=O)NNC(=O)c2ccccc2F)C1=O (stereo not given),8%,-2%
CSc1cc(-c2ccc(Cl)cc2)c(C(=O)N2CCCC2)s1,-33%,x
CCOP(=O)(OCC)C(NC(C)=O)C(=O)c1ccccc1 (stereo not given),-8%,-17%
COc1ccc(-c2cn[nH]c2-c2ccc(OCC(=O)NN)cc2O)cc1OC,-7%,-20%
Cc1ccc(C(=O)N/C(=C\c2ccco2)C(=O)NCCN2CCOCC2)cc1C,2%,-4%

# Already shown: an excerpt of the list.
SMILES,VACV Venus inh,Vaccinia mCherry
O=C(c1ccc2c(c1)OCCO2)C1CCN(C(=O)Nc2ccccc2F)CC1,-5%,-10%
O=C(c1ccc2c(c1)N(Cc1ccc(Cl)cc1)C(=O)c1ccccc1S2=O)N1CCC(Cc2ccccc2)CC1 (stereo not given),-29%,u
Cc1[nH]c2ccccc2c1C(=O)CN1CCCC1,-3%,i

# Following part:
SMILES,VACV Venus inh,Vaccinia mCherry
CCOc1cc2c(c3c1C(c1ccccc1)N(S(=O)(=O)c1ccc(C)cc1)C3)C(=O)C=CC2=O (stereo not given),u,-24%
CCOC(=O)c1c(C)c(-c2ccccc2)n(CC(=O)NCCC(C)C)c1C,1%,1%
CCCC(=O)Nc1ccc(NC(=O)Cc2ccccc2)cn1,-20%,-1%
CC(C)Cn1c(N)c(C(=O)COC(=O)c2ccc(Cl)cc2)c(=O)n(C)c1=O,-9%,i
CN(NC1OC(=O)c2ccccc21)c1ccc(Cl)cc1[N+](=O)[O-] (stereo not given),-6%,-17%
CCC(Sc1nc(-c2ccccc2)[nH]c1S(=O)(=O)c1ccc(C)cc1)C(=O)O (stereo not given),-8%,-6%
Cc1ccc2c(=O)cc(C(=O)Nc3ccc(S(=O)(=O)N4CCCCCC4)cc3)oc2c1C,-12%,-12%
O=C(O)C1CC(C2CCCCN2)CN2CCCCC12 (stereo not given),-8%,-16%
Cc1[nH]c(=S)[nH]c(=O)c1Cc1c(O)ccc2ccccc12,-6%,-20%
O=C(NCc1ccco1)Nc1ccc2nsnc2c1,-6%,-9%[1.46 µM]
CC(C)NC(=O)c1ccccc1NC(=O)C1COc2ccccc2O1 (stereo not given),-23%,-10%
O=c1c(O)c(-c2ccc(O)c(O)c2)oc2c(OC3OC(CO)C(O)C(O)C3O)c(O)cc(O)c12 (stereo not given),-12%,i
COc1ccc(C(=O)c2sc3nc4c(c(C(F)(F)F)c3c2N)CN(C(C)=O)CC4)cc1OC,7%,-8%
COc1ccc(-c2nc3ccccc3o2)cc1NC(=O)c1cccc2c(Cl)cccc12,-22%,-27%
CC(=O)Nc1ccc(C(C#N)c2ccccc2)cc1 (stereo not given),-17%,i
COc1ccccc1Cc1nc2ccccc2nc1SCC(=O)NCc1ccc(F)cc1,-9%,i
CCCCN1CCCc2cc(CN(CCCN3CCOCC3)C(=O)Nc3ccc(CC)cc3)ccc21,-9%,-19%
Cn1c(CN2CCCCC2)nc2cc(NC(=O)c3ccccc3)ccc21,-13%,u
CCOc1ccc(NC(=O)CCCOc2cc(=O)n(C)c3ccccc23)cc1,-10%,-13%
CN(C1=NC(=O)C(CC(=O)O)S1)c1ccc(O)cc1 (stereo not given),-3%,-13%
COc1cccc(NC(=O)Cn2nc(-c3ccncc3)ccc2=O)c1,4%,-12%
CSCCC(NC(=O)c1ccco1)C(=O)N1CCN(Cc2ccccc2)CC1 (stereo not given),-13%,-4%
Nc1ccc(-c2cc(N)n(-c3ccccc3)n2)cc1,-16%,x
CCCS(=O)(=O)N1CCC(C(=O)N2CCCC2)CC1,-14%,-5%
CN(C)c1ccc(/C=C2\C=Cc3ccccc32)c(F)c1,-19%,-24%
